VACV mCherry inh = vaccinia inhibition (mCherry reporter); Vaccinia virus mCherry reporter infection, fluorescence; about a quarter of the inactives have no number; Potency, µM (series often up to 36.5 µM), without a hit: at the highest dose activity change, negative = inhibition, hits mostly inhibitors; 310,000 compounds, 0.63% hits; AID 720579; active = well fitted inhibition curve with a large enough effect; inconclusive = small, poorly fitted or top-dose-only effect; inactive = no such curve, though single readings can be large or run the other way; tested in A549 cells; note: nearly all actives have a fitted effect of over 35% in size; inactives centre near -10
Vaccinia Venus = vaccinia inhibition (Venus reporter) | 330,000 compounds, 0.46% hits | Vaccinia virus Venus reporter expression, fluorescence | Potency, µM (titrated, usually from 36.5 µM), for inactives: at the highest dose activity change, negative = inhibition, hits mostly inhibitors; active means well fitted inhibition curve with a large enough effect; inconclusive means small, poorly fitted or top-dose-only effect; inactive means no such curve, though single readings can be large or run the other way; tested in A549 cells; note: nearly all actives have a fitted effect of over 30% in size; inactives centre near -10
The depositor's hits bear a star; & = joins results of further samples; [ ] = dose if it differs, or a comment. % is set by controls: 0 for no effect and ±100 for the full control effect; potency is the fitted concentration of half-maximal effect. The order is random; overall some 0.88% were active at least once.

`O=C(N=C1SC2CS(=O)(=O)CC2N1c1ccc(Br)cc1)C1CCCO1` (centres undefined) gave VACV mCherry inh -23.7% and Vaccinia Venus -7.0%.
Screening COc1cc(-c2cc(OC)c3c(C)oc(C)c3c(=O)c2)ccc1OC(=O)c1cccc(Cl)c1 returned VACV mCherry inh -1.2% and Vaccinia Venus 1.4%.
`CCOC(=O)c1sc(NC(=O)C2CC2)cc1C` gave VACV mCherry inh -39.2% and Vaccinia Venus -13.5%.
COc1ccc(-c2nc3ccc(C)cn3c2CC(C)(C)C)cc1OC was read as VACV mCherry inh 22.4% and Vaccinia Venus -6.5%.
Screening Cc1ccc(CNC(=O)c2ccccc2NC(=O)C2=CSCCO2)cc1 returned VACV mCherry inh 21.9%[7.34 µM] and Vaccinia Venus 17.2%[7.34 µM].
For CCOC(=O)N1CCN(C(=O)c2ccccc2NC(C)=O)CC1 the results were VACV mCherry inh 4.2% and Vaccinia Venus -5.5%.
For CCCN(CCC)S(=O)(=O)c1ccc(C(=O)Nc2nc(-c3ccccc3)c(C(=O)OCC)s2)cc1 the results were VACV mCherry inh -1.4% and Vaccinia Venus -21.2%.
Screening COC(=O)c1ccc(NC(=O)C2CCN(C(=O)c3cc(OC)c(OC)c(OC)c3)CC2)cc1 returned VACV mCherry inh -1.5% and Vaccinia Venus -18.3%.
Screening CCc1ccc(-n2c(SCC(=O)Nc3ccc(C(=O)O)cc3)nnc2-c2ccncc2)cc1 returned VACV mCherry inh inactive[7.34 µM] and Vaccinia Venus 0.0%[7.34 µM].
Cc1cccc(NC(=S)NNc2cccc(Cl)c2)c1 was read as VACV mCherry inh inconclusive and Vaccinia Venus 9.6%.
O=C(Nc1cc(Cl)cc(Cl)c1)c1coc(=O)c(Br)c1 was read as VACV mCherry inh inactive and Vaccinia Venus 9.5%.
CCC(C)[C@H](NC(=O)[C@@H]1Cc2ccccc2CN1)C(=O)NCc1ccc(C)cc1 (some centres undefined) was read as VACV mCherry inh -17.7% and Vaccinia Venus -13.1%.
CCCCCCN1C(=O)C(O)=C(C(C)=O)C1c1ccccc1[N+](=O)[O-] (centres undefined) was read as VACV mCherry inh -10.3% and Vaccinia Venus -5.9%.
For OC[C@@H]1CN(Cc2ccco2)C[C@H](n2cnc3c(NCc4ccc(F)cc4)ncnc32)O1 the results were VACV mCherry inh inactive and Vaccinia Venus -3.0%.
CN1CCN(C(=O)C2(NC(=O)NCc3ccccc3)CCCCC2)CC1 was read as VACV mCherry inh -7.7% and Vaccinia Venus -8.3%.
Screening Cc1cc2oc(C(=O)NCC(c3ccco3)N3CCCC3)c(C)c2cc1C (centres undefined) returned VACV mCherry inh inconclusive and Vaccinia Venus inconclusive.
O=C(Nc1ccc(C(=O)N2CCCCC2)cc1)c1ccc([N+](=O)[O-])cc1 was read as VACV mCherry inh -12.6% and Vaccinia Venus -13.9%.
`Cc1nn(-c2ccccc2)c(N2CCCC2)c1/C=N/NC(=O)c1cc2ccccc2cc1O` gave VACV mCherry inh -29.7% and Vaccinia Venus -15.0%.
For CC(C)C[C@H](NC(=O)NCc1ccc(F)cc1)C(=O)O the results were VACV mCherry inh inactive and Vaccinia Venus -2.7%.
Screening CS(=O)(=O)c1cccc(-c2nnc(NC(=O)CCS(=O)(=O)c3ccccc3)o2)c1 returned VACV mCherry inh -18.7% and Vaccinia Venus -20.6%.

Entries from the list above containing a nitro group on carbon:
CCCCCCN1C(=O)C(O)=C(C(C)=O)C1c1ccccc1[N+](=O)[O-] (centres undefined) was read as VACV mCherry inh -10.3% and Vaccinia Venus -5.9%.
O=C(Nc1ccc(C(=O)N2CCCCC2)cc1)c1ccc([N+](=O)[O-])cc1 was read as VACV mCherry inh -12.6% and Vaccinia Venus -13.9%.

Following part.
For NC(=S)N/N=C/c1coc2ccc(F)cc2c1=O the results were VACV mCherry inh -8.4% and Vaccinia Venus -6.0%.
O=C(O)c1ccc(N/N=C/C=C/c2ccc([N+](=O)[O-])o2)cc1 was read as VACV mCherry inh 20.5% and Vaccinia Venus 192.8%[activator].
For COc1cccc(-c2cc3nc(NCc4ccc5occc5c4)n(C)c(=O)c3s2)c1 the results were VACV mCherry inh inconclusive and Vaccinia Venus -14.0%.
Screening COc1ccccc1CC(=O)Nc1ccccc1C(=O)O returned VACV mCherry inh inactive and Vaccinia Venus -4.4%.
`CCOC1(c2ccccc2)OC(=O)c2ccccc21` (centres undefined) gave VACV mCherry inh -8.5% and Vaccinia Venus -1.3%.
`Brc1ccc(CNCc2cccs2)cc1` gave VACV mCherry inh -26.5% and Vaccinia Venus -3.3%.
For CCN(CC(=O)Nc1c(F)cccc1F)C(=O)CSCC(=O)Nc1cc(C)on1 the results were VACV mCherry inh -10.4% and Vaccinia Venus -3.8%.
`COc1ccc(C(=O)OCC(=O)NCc2ccccc2)c(OC)c1OC` gave VACV mCherry inh inactive and Vaccinia Venus -13.4%.
`Cc1cccc(C)c1NC(=O)COC(=O)CCC(=O)c1cccs1` gave VACV mCherry inh -0.3% and Vaccinia Venus -12.8%.
Screening CCSC1(SCC)N=C(N)C2(C#N)C(c3ccccc3)NC3=C(CCC3)C12C#N (centres undefined) returned Vaccinia Venus -9.0%.
For O=C1c2cc(F)ccc2-n2c1nc1ccccc1c2=O the results were VACV mCherry inh -26.2% and Vaccinia Venus -0.4%.
`CC(C)CCn1c(SCc2ccc(Cl)cc2)nc2c1c(=O)[nH]c(=O)n2C` gave VACV mCherry inh -14.5% and Vaccinia Venus -10.4%.
`COn1c(=O)c(-c2cccs2)[n+]([O-])c2ccccc21` gave VACV mCherry inh -23.5% and Vaccinia Venus -19.6%.
For COC(=O)CSc1nc2sc3c(c2c(=O)n1-c1ccccc1)CCN(C)C3 the results were VACV mCherry inh -17.8% and Vaccinia Venus -7.7%.
Screening CN(CC(=O)Nc1ccccc1Br)C(=O)COc1cccc2c1OC(C)(C)C2 returned VACV mCherry inh -3.2% and Vaccinia Venus -27.7%.
C=CCC[C@@H](Cc1ccc(F)cc1)C(=O)OC[C@@H](Cc1c[nH]c2ccccc12)NC(=O)[C@@H](CC=C)CC(=O)N[C@@H](CO)Cc1ccccc1 was read as VACV mCherry inh inactive and Vaccinia Venus -25.7%.
`COC(=O)C1=Nc2ccccc2/C1=C\c1c(O)n(-c2cc(OC)ccc2OC)c(=O)[nH]c1=O` gave VACV mCherry inh -6.8% and Vaccinia Venus -7.7%.
For O=C(Nc1c(C(=O)O)oc2ccc(Br)cc12)c1ccccc1 the results were VACV mCherry inh 5.2% and Vaccinia Venus 1.6%.
Screening Nc1ccc(S(=O)(=O)Nc2nccc(/C=C/c3ccc(Cl)cc3Cl)n2)cc1 returned VACV mCherry inh -3.2% and Vaccinia Venus -4.1%.
CCCCNC(=O)C1(C)CCN1C(=O)c1cc(-c2cccs2)oc1C (centres undefined) was read as VACV mCherry inh inactive and Vaccinia Venus -5.9%.

Fetched one by one from the entries so far, 5 records:
Screening CCSC1(SCC)N=C(N)C2(C#N)C(c3ccccc3)NC3=C(CCC3)C12C#N (centres undefined) returned Vaccinia Venus -9.0%.
`Brc1ccc(CNCc2cccs2)cc1` gave VACV mCherry inh -26.5% and Vaccinia Venus -3.3%.
For OC[C@@H]1CN(Cc2ccco2)C[C@H](n2cnc3c(NCc4ccc(F)cc4)ncnc32)O1 the results were VACV mCherry inh inactive and Vaccinia Venus -3.0%.
`COC(=O)C1=Nc2ccccc2/C1=C\c1c(O)n(-c2cc(OC)ccc2OC)c(=O)[nH]c1=O` gave VACV mCherry inh -6.8% and Vaccinia Venus -7.7%.
C=CCC[C@@H](Cc1ccc(F)cc1)C(=O)OC[C@@H](Cc1c[nH]c2ccccc12)NC(=O)[C@@H](CC=C)CC(=O)N[C@@H](CO)Cc1ccccc1 was read as VACV mCherry inh inactive and Vaccinia Venus -25.7%.

Next part:
`CC(=O)OC1CCC2(C)C(=CCC3C2CCC2(C)C3CC3ON=C(C)C32)C1` (centres undefined) gave VACV mCherry inh inactive and Vaccinia Venus 2.6%.
For Cc1ccc([N+](=O)[O-])cc1NC(=O)c1ccc(-c2ccccc2)cc1 the results were Vaccinia Venus -10.8%.
`CS(=O)(=O)c1ccc(Cl)c(NC(=O)CCl)c1` gave VACV mCherry inh inconclusive and Vaccinia Venus inconclusive.
For NNC(=O)Cn1c(-c2ccccn2)nc2ccccc21 the results were VACV mCherry inh -7.2% and Vaccinia Venus -4.6%.
Cc1ccc(OC2CCN(C(=O)[C@H]3O[C@@H](n4ccc(=O)[nH]c4=O)[C@H](O)[C@@H]3O)CC2)cc1 was read as VACV mCherry inh -8.4% and Vaccinia Venus -5.6%.
For COCC(=O)Nc1ccc(C)c(Cl)c1 the results were VACV mCherry inh -12.3% and Vaccinia Venus -11.9%.
For COc1ccc(N=C2SC(C(=O)O)CC(=O)N2C)cc1 (centres undefined) the results were Vaccinia Venus 9.4%.
Screening COc1ccc(C2/C=C\CC(NC(=O)OCC3c4ccccc4-c4ccccc43)CC(=O)N2Cc2ccccc2F)cc1 (centres undefined) returned VACV mCherry inh -17.2% and Vaccinia Venus -22.6%.
Screening COc1ccc(N2CC(O)(c3ccc(F)cc3)[N+]3=C2CCCC3)cc1 (centres undefined) returned VACV mCherry inh -13.2% and Vaccinia Venus -2.6%.
`Cc1ccc(/C=C2\CCOC2=O)cc1` gave VACV mCherry inh inactive and Vaccinia Venus 0.7%.
For Cc1ccc(S(=O)(=O)N2CC3(O)CN(C(=O)OC(C)C)N(C(=O)OC(C)C)CC3(OC(=O)NCc3ccccc3F)C2)cc1 (centres undefined) the results were VACV mCherry inh 9.6% and Vaccinia Venus -14.9%.
CCOCC(=O)Nc1cc(C(=O)Nc2ccccc2)ccc1Cl was read as VACV mCherry inh -13.1% and Vaccinia Venus -11.3%.
Cc1cccc2c1NC(=O)C2=O was read as VACV mCherry inh inactive and Vaccinia Venus -10.9%.
For Cc1cc(C)n2nc(SC(C)C(=O)N(C)C3CCCCC3)nc2n1 (centres undefined) the results were VACV mCherry inh -12.2% and Vaccinia Venus -2.8%.
COc1ccc(CC(=O)OCC(=O)Nc2cccc(Cl)c2)cc1 was read as VACV mCherry inh inactive and Vaccinia Venus -14.2%.
Cc1ccccc1Cn1nc(C)c(NC(=O)c2cc(CC(C)C)on2)c1C was read as VACV mCherry inh -14.5%&-17.0% and Vaccinia Venus -21.9%&-6.5%.
Screening CC(=O)Nc1sc(NC(=O)c2ccc(Cl)cc2)nc1-c1cccs1 returned VACV mCherry inh -13.2% and Vaccinia Venus -2.1%.
Cc1cccc(C(=O)N2CCC(N3CCC(C(=O)N4CCOCC4)CC3)CC2)c1 was read as VACV mCherry inh inactive and Vaccinia Venus -8.1%.
Screening NC(N)=N/N=C/c1ccc(Cl)c([N+](=O)[O-])c1 returned VACV mCherry inh inconclusive and Vaccinia Venus -28.2%.
Screening CCC1CN(C(=O)N2CCC(C(=O)NCc3cc(OC)c(OC)c(OC)c3)CC2)c2ccccc2O1 (centres undefined) returned VACV mCherry inh -12.8%&20.7% and Vaccinia Venus 1.1%&3.2%.
Screening c1nc(NCC2CCCO2)c2[nH]cnc2n1 (centres undefined) returned VACV mCherry inh -8.1%&9.5% and Vaccinia Venus -15.1%&-8.4%.
OC[C@@H]1CN(Cc2ccc(Cl)cc2)C[C@H](n2cnc3c(N4CCCC4)ncnc32)O1 was read as VACV mCherry inh inactive and Vaccinia Venus -25.2%.
`O=C(CN1C(=O)CC(c2ccccc2)=Nc2ccccc21)NCc1ccco1` gave VACV mCherry inh -18.6% and Vaccinia Venus -12.5%.
Cc1oc2ncn(C)c(=O)c2c1C(=O)NCc1ccc(Cl)cc1 was read as VACV mCherry inh -21.3% and Vaccinia Venus -15.9%.
CN1CCC(=NNC(=O)CN(c2cccc(Br)c2)S(C)(=O)=O)CC1 was read as VACV mCherry inh -6.2% and Vaccinia Venus -5.8%.
For CCC(=O)NCCn1c(C)cc2ccccc21 the results were VACV mCherry inh 48.1%[activator] and Vaccinia Venus 5.0%.
For Cn1c(=O)c2c(nc(N3CCOCC3)n2Cc2ccccc2Cl)n(C)c1=O the results were VACV mCherry inh -11.4% and Vaccinia Venus -17.0%.
Screening CCCCn1c(N)c(N(CCOC)C(=O)CSCc2ccc(C)cc2)c(=O)[nH]c1=O returned VACV mCherry inh -5.2% and Vaccinia Venus -17.7%.
`Cc1nc(NC(=O)/C=C/c2ccc(C(C)(C)C)cc2)sc1C(=O)N(C)C` gave VACV mCherry inh inactive and Vaccinia Venus -11.0%.
Screening CCOCCCNc1ccc(N2C(=O)C3CCCCC3C2=O)cc1[N+](=O)[O-] (centres undefined) returned VACV mCherry inh -6.5% and Vaccinia Venus -11.0%.
`COc1cc(NC(=O)c2ccc(C)c(Cl)c2)ccc1NC(=O)c1cc2ccccc2o1` gave VACV mCherry inh inconclusive and Vaccinia Venus inconclusive.
For CCCCCC(=O)NC(=S)Nc1ccc(NC(=O)c2ccco2)cc1 the results were VACV mCherry inh inactive and Vaccinia Venus -19.3%.
COc1ccc(C2=NCCn3nc4ccccc4c32)cc1 was read as VACV mCherry inh -2.7% and Vaccinia Venus -24.4%.
`CCOC(=O)N1CCN(C(=O)CN(c2ccc(C)cc2C)S(=O)(=O)c2ccccc2)CC1` gave VACV mCherry inh 4.0% and Vaccinia Venus -2.1%.
`O=C(COC(=O)/C=C/c1ccccc1Cl)NCc1ccccc1` gave VACV mCherry inh -14.5% and Vaccinia Venus -5.6%.
For COC(=O)c1cc(-c2c(C)oc3cc(OC(C)C)ccc3c2=O)c(C)o1 the results were VACV mCherry inh inactive and Vaccinia Venus -11.9%.
COc1cccc(N2CCN(C(=O)C3CCC(CNS(=O)(=O)c4ccc(Br)s4)CC3)CC2)c1 (centres undefined) was read as VACV mCherry inh -29.2% and Vaccinia Venus -19.7%.

High-throughput results from PubChem BioAssay.
